Screening data from PubChem.
rRNA inh HTS: selective bacterial rRNA inhibition in E. coli. E. coli WT GFP vs humanized-ribosome RFP mutants, fluorescence, 24 h; active compounds read low; DMSO median 0, no signal -100. GFP signal change (wild-type ribosome), % (test concentration not listed). 350,000 tested, 1.6% active. AID 720706;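 active = significant combined selectivity score with lowered wild-type GFP, culture density cut under 30%, mutant RFP and density less affected; inactive = any of these conditions unmet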; also: one replicate is shown; some compounds called inactive have numbers as strong as hits
FGF22 binding: shifts melting point of recombinant human FGF22 | AID 651658 | calls only at 9.99 µM | 340,000 tested, 1.5% active | recombinant FGF22 thermal shift, SYPRO orange fluorescence; percent of sucrose octasulfate shift, DMSO zero | Q9HCT0;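 active = melting point raised past a set limit in the mean and every replicate; three in four hits are not shown here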
Target sequence (Q9HCT0 whole entry, looked up): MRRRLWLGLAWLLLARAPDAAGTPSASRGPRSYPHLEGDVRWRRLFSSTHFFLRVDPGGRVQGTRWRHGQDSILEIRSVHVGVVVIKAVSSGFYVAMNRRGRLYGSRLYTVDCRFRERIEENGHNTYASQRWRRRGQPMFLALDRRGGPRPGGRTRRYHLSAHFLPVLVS
AF4-AF9 inh: inhibitors of human MLL-AF4/AF9 interaction | P42568 | AlphaScreen, biotin-AF4 peptide binding to FLAG-AF9 | inhibition, % at 10 µM | 350,000 tested, 0.47% active | AID 651704;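 active = every replicate reaching a set inhibition limit, whatever the replicate mean, cut at about 25% in these data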;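 also: 0% = plate neutral control median and 100% = total signal loss; the record names both 10 and 1 µM as test concentration; the first replicate is given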
Target sequence (P42568 whole entry, looked up): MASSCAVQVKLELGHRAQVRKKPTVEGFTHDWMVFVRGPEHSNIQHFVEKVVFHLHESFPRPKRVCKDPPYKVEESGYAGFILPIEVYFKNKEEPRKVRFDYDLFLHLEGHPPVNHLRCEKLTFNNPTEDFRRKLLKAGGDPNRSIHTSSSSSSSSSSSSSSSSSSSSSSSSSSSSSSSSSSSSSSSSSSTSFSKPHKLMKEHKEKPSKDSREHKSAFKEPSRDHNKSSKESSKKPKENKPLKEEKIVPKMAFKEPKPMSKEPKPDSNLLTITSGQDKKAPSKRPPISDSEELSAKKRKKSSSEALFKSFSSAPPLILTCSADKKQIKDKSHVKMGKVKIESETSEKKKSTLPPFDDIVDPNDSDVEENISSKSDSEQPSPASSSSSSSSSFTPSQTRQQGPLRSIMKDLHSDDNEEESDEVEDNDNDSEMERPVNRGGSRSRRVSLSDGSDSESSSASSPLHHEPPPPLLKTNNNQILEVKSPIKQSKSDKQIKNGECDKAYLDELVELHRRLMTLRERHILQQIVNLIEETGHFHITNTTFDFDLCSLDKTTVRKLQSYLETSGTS
HNF4A DNA FP: change in binding of human HNF4 alpha to DNA; HNF4a-FITC DNA binding, fluorescence polarization, 1 h; activity change, % at 10 µM; 360,000 tested, 0.3% active; AID 1224865; in the data active = activity change above about 30%, passing the limit was not always enough;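 also: controls were the assay level and a saturating level of protein; the project sought stronger binding though the title names inhibitors; some compounds called inactive have numbers as strong as hits; positive values seem to mean higher polarization but the record does not say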
ALR H2O2 inh: inhibitors of human sulfhydryl oxidase ALR. P55789. purified ALR, DTT oxidation, H2O2 HRP-luminol luminescence. inhibition, % (test concentration not listed). 290,000 tested, 3.8% active. AID 485317;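 active = mean and each replicate at 75% or more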;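 also: stock transfer was 7.5 nL into about 7.5 µL; 0% = neutral wells and 100% = wells with inactivated enzyme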
Target sequence (P55789 whole entry, looked up): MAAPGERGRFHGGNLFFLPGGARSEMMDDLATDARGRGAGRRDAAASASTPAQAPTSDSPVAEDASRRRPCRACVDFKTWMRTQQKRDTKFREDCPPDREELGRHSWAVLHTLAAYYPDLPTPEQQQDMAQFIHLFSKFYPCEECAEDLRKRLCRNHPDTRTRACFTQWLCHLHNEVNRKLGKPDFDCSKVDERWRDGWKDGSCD
E coli growth: E. coli growth inhibition | Escherichia coli growth, OD600, 23 h; active compounds read low | OD600 absorbance (no concentration beside the values) | 330,000 tested, 0.21% active;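 active = OD600 absorbance below the run mean of sample wells minus 3.6 SD, in any replicate, cut at about 0.56 in these data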;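 also: stock transfer was 300 nL into about 60 µL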
Vif TR-FRET: HIV-1 Vif–A3G interaction blockers – biochemical, TR-FRET, GST-Vif 1-94, biotin-A3G peptide, dose response retest, primary screen (AID 1117319); TR-FRET GST-Vif / biotin-A3G peptide binding; higher % means a stronger effect; test concentration not given here; strong numbers were not always called active; inhibition, %; hits with a dose series show IC50 in µM; 260,000 tested, 0.57% active;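 active = above the screen mean plus three standard deviations and confirmed in dose response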;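 also: Vif residues 1-94 fused to GST binding biotinylated APOBEC3G peptide 110-148; 0% = full assay without inhibitor and 100% = GST in place of GST-Vif; retest series ran down from 100 µM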
rRNA inh HTS OD600: recorded beside rRNA inh HTS, whose call it bears; OD600 change, %; measured here: OD600 growth;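 optical density of the mix in the first replicate; 0 = DMSO median and -100 = no signal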
rRNA inh HTS RFP: recorded beside rRNA inh HTS, whose call it bears; RFP signal change, %; measured here: RFP humanized mutant strains;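 first replicate; 0 = DMSO median and -100 = no signal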
* marks the source's active call; other numbers are inactive results. A portion of the library; rates above refer to the full screens.

`CCOc1ccccc1NS(=O)(=O)c1cn(C)nc1C` gave rRNA inh HTS 12, FGF22 binding inactive, AF4-AF9 inh -1.0, HNF4A DNA FP -47, ALR H2O2 inh -3, E coli growth 0.7, Vif TR-FRET 24%, rRNA inh HTS OD600 13 and rRNA inh HTS RFP 4.3.
Cc1noc(C)c1NC(=O)N(C)C[C@@H]1OCCCC[C@H](C)Oc2ccc(NC(=O)CCC(F)(F)F)cc2C(=O)N([C@H](C)CO)C[C@H]1C was read as rRNA inh HTS 0, FGF22 binding inactive, AF4-AF9 inh -1.0, rRNA inh HTS OD600 2 and rRNA inh HTS RFP -0.3.
COC(=O)c1cc(-c2c(C)oc3cc(OC(C)C)ccc3c2=O)c(C)o1 was read as HNF4A DNA FP 1.8, E coli growth 0.69 and Vif TR-FRET -1%.
For COc1ccc(C(C)c2cc3c(cc2OCC(=O)O)OCO3)cc1 (centres undefined) the results were rRNA inh HTS -2, FGF22 binding inactive, AF4-AF9 inh -6.2, rRNA inh HTS OD600 -1 and rRNA inh HTS RFP 0.6.
Screening CC1CN(C(=O)COC(=O)Cc2ccc(Cl)cc2)CC(C)O1 (centres undefined) returned FGF22 binding inactive, AF4-AF9 inh 2.3, HNF4A DNA FP 2.8, ALR H2O2 inh 0, E coli growth 0.67 and Vif TR-FRET 69%.
Screening Cc1ccc(C(=O)N/C(=C\c2ccc(-c3cccc([N+](=O)[O-])c3)o2)C(=O)NC(C)(C)C)cc1 returned HNF4A DNA FP 10, ALR H2O2 inh 2 and E coli growth 0.69.
OCCC1CN(Cc2cnc(-c3ccccc3)s2)CCN1C1CCCCC1 (centres undefined) was read as rRNA inh HTS 3, FGF22 binding inactive, AF4-AF9 inh -15, HNF4A DNA FP 0.2, ALR H2O2 inh -21, E coli growth 0.65, Vif TR-FRET 25%, rRNA inh HTS OD600 8 and rRNA inh HTS RFP 0.3.
For CCN(C(=O)c1ccc(NC(=O)Cc2ccccc2)cc1)c1ccccc1 the results were rRNA inh HTS -15, FGF22 binding inactive, AF4-AF9 inh -1.6, HNF4A DNA FP -3.2, ALR H2O2 inh -18, E coli growth 0.71, Vif TR-FRET -5%, rRNA inh HTS OD600 -18 and rRNA inh HTS RFP -1.8.
`CCCC#Cc1ccc([C@@H]2[C@@H](C#N)N(S(C)(=O)=O)[C@H]2CO)cc1` gave rRNA inh HTS -1, FGF22 binding inactive, AF4-AF9 inh -1.1, rRNA inh HTS OD600 4 and rRNA inh HTS RFP -0.3.
For CCCC(=O)Nc1ccccc1NC(=O)c1ccc(OC)cc1 the results were rRNA inh HTS 15, FGF22 binding inactive, AF4-AF9 inh -1.4, HNF4A DNA FP 0.3, ALR H2O2 inh -6, E coli growth 0.68, Vif TR-FRET 9%, rRNA inh HTS OD600 6 and rRNA inh HTS RFP 0.0.
For O=C(N/N=C/c1cc(Br)cc(Br)c1O)c1cccc(N2CCCC2=O)c1 the results were rRNA inh HTS 12, FGF22 binding inactive, AF4-AF9 inh -1.0, HNF4A DNA FP 8.3, ALR H2O2 inh -9, rRNA inh HTS OD600 4 and rRNA inh HTS RFP -1.9.
`O=C(Nc1ccc(Cl)cc1Cl)c1cc2ccccc2o1` gave rRNA inh HTS 18, FGF22 binding inactive, AF4-AF9 inh -11, HNF4A DNA FP 0.0, ALR H2O2 inh 1, E coli growth 0.69, Vif TR-FRET -10%, rRNA inh HTS OD600 18 and rRNA inh HTS RFP 1.4.
Cc1ccccc1NC(=O)N1CCN(C(=O)c2ccco2)CC1 was read as rRNA inh HTS 8, FGF22 binding inactive, AF4-AF9 inh -1.9, HNF4A DNA FP 5.0, ALR H2O2 inh -14, E coli growth 0.7, Vif TR-FRET -10%, rRNA inh HTS OD600 6 and rRNA inh HTS RFP -2.2.
`COc1ccc(S(=O)(=O)Nc2ccc3c(c2)C(=O)N([C@H](C)CO)C[C@H](C)[C@H](CN(C)S(=O)(=O)c2cn(C)cn2)OCCCC[C@@H](C)O3)cc1` gave rRNA inh HTS 5, FGF22 binding inactive, AF4-AF9 inh -4.4, rRNA inh HTS OD600 0 and rRNA inh HTS RFP 0.3.
For FC(F)(F)Oc1ccc(Nc2nc3ccccc3o2)cc1 the results were HNF4A DNA FP -0.2, ALR H2O2 inh -5, E coli growth 0.75 and Vif TR-FRET -1%.
`O=[N+]([O-])c1ccccc1CNCCCCCO` gave rRNA inh HTS 19, FGF22 binding inactive, AF4-AF9 inh 0.5, HNF4A DNA FP 0.4, ALR H2O2 inh 21, E coli growth 0.64, rRNA inh HTS OD600 7 and rRNA inh HTS RFP 6.1.
For CCC(=O)NCCc1cc2cc(C)c(C)cc2[nH]c1=O the results were HNF4A DNA FP -2.1, ALR H2O2 inh -11, E coli growth 0.73 and Vif TR-FRET 7%.
`Cc1cc(Br)c(Oc2cc(NN3CCCCC3)c([N+](=O)[O-])cc2[N+](=O)[O-])c(Br)c1` gave rRNA inh HTS 3, FGF22 binding inactive, AF4-AF9 inh 1.5, HNF4A DNA FP 3.4, E coli growth 0.69, rRNA inh HTS OD600 0 and rRNA inh HTS RFP -7.6.
`O=C(CNS(=O)(=O)c1ccccc1)NCC(=O)N1CCCCC1` gave rRNA inh HTS 23, FGF22 binding inactive, AF4-AF9 inh 3.9, HNF4A DNA FP -4.4, ALR H2O2 inh -55, E coli growth 0.64, rRNA inh HTS OD600 12 and rRNA inh HTS RFP 6.5.
`O=C(NNC(=S)NCc1ccccc1)c1cccc([N+](=O)[O-])c1` gave rRNA inh HTS 2, FGF22 binding inactive, AF4-AF9 inh -1.6, HNF4A DNA FP -0.4, ALR H2O2 inh 14, E coli growth 0.68, Vif TR-FRET -4%, rRNA inh HTS OD600 5 and rRNA inh HTS RFP -1.7.
For COc1cc(S(=O)(=O)n2c(C)nc3ccccc32)ccc1F the results were HNF4A DNA FP -2.2, ALR H2O2 inh -14, E coli growth 0.71 and Vif TR-FRET 1%.
For O=C(C[C@@H]1C[C@H]2c3cc(NC(=O)C4CCOCC4)ccc3O[C@H]2[C@H](CO)O1)NCCN1CCCCC1 the results were rRNA inh HTS 5, FGF22 binding inactive, AF4-AF9 inh 1.1, rRNA inh HTS OD600 9 and rRNA inh HTS RFP -0.4.
Screening CCc1cc(SC#N)cc(C)c1NC(=O)CCl returned FGF22 binding inactive, AF4-AF9 inh -2.0, HNF4A DNA FP 1.0, ALR H2O2 inh 98*, E coli growth 0.66 and Vif TR-FRET 30%.
`Cc1cc(Cl)c(S(=O)(=O)N2CCN(c3cccc(C)c3C)CC2)cc1OCC(N)=O` gave rRNA inh HTS 0, HNF4A DNA FP 1.6, ALR H2O2 inh -25, E coli growth 0.72, Vif TR-FRET 7%, rRNA inh HTS OD600 -4 and rRNA inh HTS RFP -2.4.
Cc1noc(C)c1S(=O)(=O)Nc1ccc2c(c1)C(=O)N([C@H](C)CO)C[C@H](C)[C@@H](CN(C)S(=O)(=O)c1ccc(Cl)cc1)OCCCC[C@H](C)O2 was read as rRNA inh HTS -3, FGF22 binding inactive, AF4-AF9 inh 8.2, rRNA inh HTS OD600 -4 and rRNA inh HTS RFP -1.2.
O=C(NCc1cccc(F)c1)c1cccc2c1C(=O)c1ccc(N3CCCC3)cc1S2(=O)=O was read as rRNA inh HTS 45, HNF4A DNA FP 80, ALR H2O2 inh 1, rRNA inh HTS OD600 4 and rRNA inh HTS RFP 30.
Screening Cc1ccsc1C(=O)NCCC(c1ccccc1)c1ccccc1 returned FGF22 binding inactive, AF4-AF9 inh -1.5, HNF4A DNA FP -2.2, ALR H2O2 inh -20 and E coli growth 0.69.
`COC(=O)CCCNc1ncccc1[N+](=O)[O-]` gave rRNA inh HTS 26, FGF22 binding inactive, AF4-AF9 inh -0.4, HNF4A DNA FP -1.9, ALR H2O2 inh -5, E coli growth 0.61, Vif TR-FRET -6%, rRNA inh HTS OD600 10 and rRNA inh HTS RFP 4.8.
CCSc1nnc(NC(=O)COc2cccc3ccccc23)s1 was read as rRNA inh HTS 8, HNF4A DNA FP 6.0, ALR H2O2 inh -7, E coli growth 0.67, Vif TR-FRET -6%, rRNA inh HTS OD600 10 and rRNA inh HTS RFP 2.9.
For CC(C)Sc1ncnc2c1oc1ccccc12 the results were HNF4A DNA FP 1.4, ALR H2O2 inh -4, E coli growth 0.67 and Vif TR-FRET 2%.

Reprinted from the part before: two compounds, followed by the next part.
CCSc1nnc(NC(=O)COc2cccc3ccccc23)s1 was read as rRNA inh HTS 8, HNF4A DNA FP 6.0, ALR H2O2 inh -7, E coli growth 0.67, Vif TR-FRET -6%, rRNA inh HTS OD600 10 and rRNA inh HTS RFP 2.9.
For CC(C)Sc1ncnc2c1oc1ccccc12 the results were HNF4A DNA FP 1.4, ALR H2O2 inh -4, E coli growth 0.67 and Vif TR-FRET 2%.
CCOc1ccc(CN2CCN(C(=O)c3ccco3)CC2)cc1 was read as rRNA inh HTS 8, FGF22 binding inactive, AF4-AF9 inh -0.3, HNF4A DNA FP 0.2, ALR H2O2 inh 0, E coli growth 0.63, Vif TR-FRET -6%, rRNA inh HTS OD600 -4 and rRNA inh HTS RFP -4.1.
For CC(=O)c1c(C)nc(Nc2nc(C)c3cc(C)ccc3n2)nc1C the results were rRNA inh HTS 2, FGF22 binding inactive, AF4-AF9 inh -0.5, HNF4A DNA FP 1.8, ALR H2O2 inh 6, Vif TR-FRET 0%, rRNA inh HTS OD600 9 and rRNA inh HTS RFP -4.5.
`C[C@H](CO)N1C[C@H](C)[C@@H](CN(C)Cc2ccc(-c3ccccc3)cc2)Oc2ccc(NC(=O)Nc3ccc(C(F)(F)F)cc3)cc2CC1=O` gave rRNA inh HTS 5, FGF22 binding inactive, AF4-AF9 inh 0.4, rRNA inh HTS OD600 11 and rRNA inh HTS RFP 1.0.
`CC(C)C#Cc1cnc2c(c1)C(=O)N([C@H](C)CO)C[C@H](C)[C@H](CN(C)C(=O)c1cccnc1)O2` gave rRNA inh HTS 4, FGF22 binding inactive, AF4-AF9 inh -5.1, rRNA inh HTS OD600 1 and rRNA inh HTS RFP -2.0.
`CC1CN(C(=O)c2ccc(OC3CCN(Cc4ccccn4)CC3)cc2)CCN1C` (centres undefined) gave rRNA inh HTS 7, FGF22 binding inactive, AF4-AF9 inh -1.2, HNF4A DNA FP 0.7, ALR H2O2 inh -4, rRNA inh HTS OD600 15 and rRNA inh HTS RFP -1.0.
Screening C[C@H](CO)N1C[C@H](C)[C@@H](CN(C)CC2CCCC2)Oc2ncc(C#C[C@@H](C)O)cc2C1=O returned rRNA inh HTS 5, FGF22 binding inactive, AF4-AF9 inh -2.2, rRNA inh HTS OD600 4 and rRNA inh HTS RFP -4.9.
O=C1CC(c2ccc(F)cc2)c2cc3c(cc2N1)CCC3 (centres undefined) was read as FGF22 binding inactive, AF4-AF9 inh 2.1, HNF4A DNA FP 3.3 and Vif TR-FRET 12%.
Screening O=C(NC[C@H]1[C@H](c2ccccc2)[C@H](CO)N1C(=O)Cc1ccncc1)C1CCC1 returned rRNA inh HTS 3, FGF22 binding inactive, AF4-AF9 inh -1.1, rRNA inh HTS OD600 0 and rRNA inh HTS RFP -0.7.
For CC(CCn1cccn1)NC(=O)CCc1nnc(C2CCCCC2)o1 (centres undefined) the results were rRNA inh HTS -8, FGF22 binding inactive, AF4-AF9 inh -1.2, HNF4A DNA FP -1.5, ALR H2O2 inh -2, E coli growth 0.67, rRNA inh HTS OD600 0 and rRNA inh HTS RFP -3.6.
COc1ccc(OC)c(CNC(=O)c2nn(C)c3c2CS(=O)(=O)c2ccccc2-3)c1 was read as rRNA inh HTS 0, FGF22 binding inactive, AF4-AF9 inh -2.4, HNF4A DNA FP 2.4, ALR H2O2 inh -4, E coli growth 0.69, rRNA inh HTS OD600 6 and rRNA inh HTS RFP -3.2.
O=C(NCC[C@@H]1CC[C@@H](NS(=O)(=O)c2ccccc2)[C@@H](CO)O1)c1ccccc1F was read as rRNA inh HTS 0, FGF22 binding inactive, AF4-AF9 inh 0.7, rRNA inh HTS OD600 2 and rRNA inh HTS RFP -0.6.
